Screening data from PubChem.
Polio RdRp inh = poliovirus RNA polymerase inhibition | AID 588519 | 150,000 compounds, 0.66% hits | % elongation, % (compound at 16.7 µg/mL) | P03300 | poliovirus polymerase elongation, fluorescence polarization; active compounds read low; in the data active = % elongation below about 90%; also: some results filed as inactive read as strong as hits
Target sequence (P03300 1749-2209 limits assumed): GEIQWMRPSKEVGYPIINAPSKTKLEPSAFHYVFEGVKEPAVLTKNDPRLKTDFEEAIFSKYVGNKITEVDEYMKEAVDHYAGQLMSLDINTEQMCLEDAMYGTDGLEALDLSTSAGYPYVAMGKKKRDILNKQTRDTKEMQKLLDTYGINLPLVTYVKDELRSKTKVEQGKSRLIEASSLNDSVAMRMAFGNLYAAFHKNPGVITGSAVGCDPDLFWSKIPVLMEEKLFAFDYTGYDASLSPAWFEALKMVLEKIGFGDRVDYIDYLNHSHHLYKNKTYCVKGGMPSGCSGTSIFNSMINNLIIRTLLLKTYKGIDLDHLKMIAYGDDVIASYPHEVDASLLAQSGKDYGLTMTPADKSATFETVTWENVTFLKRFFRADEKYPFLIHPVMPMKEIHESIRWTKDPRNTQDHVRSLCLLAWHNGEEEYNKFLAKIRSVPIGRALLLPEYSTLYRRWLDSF
Mtb MbtI inh = inhibitors of Mycobacterium tuberculosis siderophore enzyme MbtI; purified MbtI enzyme, fluorescence intensity read-out; inhibition, %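 (about 17 µg/mL by stock and volumes)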; AID 493033; 100,000 compounds, 0.89% hits;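 active = above 50% in both replicates, above 80% if mildly self-fluorescent; inactive = the rest, strongly fluorescent compounds included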;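 also: 0% = mean of negative and 100% = mean of positive controls; one replicate is shown; some compounds called inactive have numbers as strong as hits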
Target sequence (P9WFX0 whole entry, looked up): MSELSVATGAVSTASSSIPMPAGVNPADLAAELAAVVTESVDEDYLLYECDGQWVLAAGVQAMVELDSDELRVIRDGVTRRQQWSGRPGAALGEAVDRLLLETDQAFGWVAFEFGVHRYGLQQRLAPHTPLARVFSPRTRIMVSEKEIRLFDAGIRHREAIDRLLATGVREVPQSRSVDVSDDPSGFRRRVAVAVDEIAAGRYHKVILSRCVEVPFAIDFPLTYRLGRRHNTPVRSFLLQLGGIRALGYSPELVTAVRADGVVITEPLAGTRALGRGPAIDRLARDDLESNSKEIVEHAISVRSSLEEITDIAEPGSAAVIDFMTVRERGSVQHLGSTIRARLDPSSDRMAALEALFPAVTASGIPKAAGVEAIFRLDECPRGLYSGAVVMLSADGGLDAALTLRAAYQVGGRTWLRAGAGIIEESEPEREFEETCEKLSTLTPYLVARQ
MenB inh = Mtb MenB enzyme inhibition; P9WNP5; MenB enzyme assay, absorbance read-out; some hits fall short of the stated cut; inhibition, %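 (about 12 µg/mL by stock and volumes)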; 100,000 compounds, 0.43% hits; AID 540299;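 active = mean of two replicates above 30%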;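 also: 0% = no compound and 100% = wells with inactive enzyme; the first replicate is given; strong numbers were not always called active; inactives centre near -10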
Polio RdRp inh intensity = also measured in Polio RdRp inh; calls as there; % elongation; measured here: total intensity read-out; formula for this scale not given here;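 total fluorescence in place of polarization; lower means less elongation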
* = called active by the depositor; . = no result given.

The opening seven compounds, ahead of the listing:
Values run as follows: Polio RdRp inh	Polio RdRp inh intensity	Mtb MbtI inh	MenB inh
#1 CC(C)(C)c1ccc(CN2C3=NC(=O)CN3c3ccccc32)cc1
→ 101	102	5	-22
#2 Cc1ccccc1-c1nc2sc(C)c(C)c2c(=O)o1
→ 101	108	-11	.
#3 O=C(N=S1CCN(C(=O)c2ccc(Cl)cc2)CC1)c1ccc(Cl)cc1
→ 108	109	-5	-16
#4 CCn1cc(CCCC(=O)NC(C)C)c2ccccc21
→ 99	102	-15	4
#5 CCn1c(SCC(=O)Nc2ccc(S(=O)(=O)N3CCCC3)cc2)nnc1-c1ccccc1
→ 105	106	2	5
#6 CCN1CCN(c2ccc(NC(=O)Cc3ccsc3)cc2)CC1
→ 101	103	-7	-23
#7 CCOc1ccccc1NC(=O)COC(=O)CCN1C(=O)C2CC=CCC2C1=O (configuration not stated)
→ 102	107	3	10

The whole of this part (from the top)
Values run as follows: Polio RdRp inh	Polio RdRp inh intensity	Mtb MbtI inh	MenB inh
#1 CC(C)(C)c1ccc(CN2C3=NC(=O)CN3c3ccccc32)cc1
→ 101	102	5	-22
#2 Cc1ccccc1-c1nc2sc(C)c(C)c2c(=O)o1
→ 101	108	-11	.
#3 O=C(N=S1CCN(C(=O)c2ccc(Cl)cc2)CC1)c1ccc(Cl)cc1
→ 108	109	-5	-16
#4 CCn1cc(CCCC(=O)NC(C)C)c2ccccc21
→ 99	102	-15	4
#5 CCn1c(SCC(=O)Nc2ccc(S(=O)(=O)N3CCCC3)cc2)nnc1-c1ccccc1
→ 105	106	2	5
#6 CCN1CCN(c2ccc(NC(=O)Cc3ccsc3)cc2)CC1
→ 101	103	-7	-23
#7 CCOc1ccccc1NC(=O)COC(=O)CCN1C(=O)C2CC=CCC2C1=O (configuration not stated)
→ 102	107	3	10
#8 O=C(CN1CCN(Cc2ccccc2)CC1)NN=C/C=C\c1ccco1
→ 100	102	2	-24
#9 CS/C(=N\S(=O)(=O)c1cccs1)Nc1ccc(F)cc1
→ 103	97	-16	-27
#10 CN1C(=O)/C(=C(/C#N)C(=O)NCc2ccc(Cl)cc2)c2ccccc21
→ 102	107	3	.
#11 COc1ccc(S(=O)(=O)NC(N)=NCCc2ccc(Cl)cc2)cc1OC
→ 100	103	-1	2
#12 Cc1c(SC(F)F)cc(SC(F)F)cc1SC(F)F
→ 98	102	-5	-10
#13 O=C(Nc1cc(C(F)(F)F)ccc1Br)c1ccccc1F
→ 104	107	2	-8
#14 Cc1noc(C)c1COc1cccc(C(=O)N[C@@H](Cc2ccccc2)c2nc3ccccc3[nH]2)c1
→ 100	104	17	0
#15 O=C(OCc1ccccc1)c1cc2ccccc2[nH]1
→ 105	111	99	-16
#16 CC(C)(C#N)Nc1ccccc1
→ 105	104	-16	-42
#17 O=C(CSc1nnc(-c2c[nH]c3ccccc23)n1CC1CCCO1)c1ccc(Cl)s1 (configuration not stated)
→ 117	120	1	-10
#18 CC(=O)NC(O)C(=O)c1ccccc1 (configuration not stated)
→ 102	105	-2	-17
#19 Cc1ccc(S(=O)(=O)N(CCC#N)c2ccc(Br)cc2)cc1
→ 101	106	-4	.
#20 COC(=O)c1ccc(OCCOc2ccc(C(=O)OC)cc2)cc1
→ 103	105	-6	6
#21 CC(=O)Oc1ccc(OC(C)=O)c(C2=C3C(=O)N(CCc4c[nH]c5ccccc45)CC(=O)N3CCC2)c1
→ 104	104	100*	12
#22 Cc1cc(F)ccc1S(=O)(=O)NCC1CC2CCC1C2 (configuration not stated)
→ 103	107	4	-24
#23 Cc1ccc(-n2cc(-c3ccccc3)nc2SCC(=O)NCCc2ccccc2)cc1
→ 103	105	4	-3
#24 CCN(CC)CCN=Cc1c(O)n(-c2ccccc2C)c(=O)[nH]c1=O
→ 102	91	14	-13
#25 NN/C(=N\S(=O)(=O)c1ccccc1)NNc1ccccc1
→ 104	96	6	-15
#26 CCOC(=O)/C(C#N)=C1/C=CC(Cl)=NN1
→ 103	101	30	-148
#27 Cc1nc2ccccc2n1CC(=O)OCC(=O)C(C)(C)C
→ 96	99	11	-10
#28 COc1ccc(N2CCN(S(=O)(=O)c3c(C)noc3/C=C/N3CCOCC3)CC2)cc1
→ 101	100	11	-4
#29 Nc1ccc(SC(C(F)(F)F)(C(F)(F)F)C(F)(F)F)cc1
→ 94	89	4	1
#30 CCOC(=O)N1CCC(NCc2c(C(=O)O)c(C)n(Cc3cccc(C)c3)c2C)CC1
→ 102	101	-1	1
#31 COc1cccc(N=Cc2ccccc2O)c1
→ 102	99	7	-40
#32 COc1ccccc1Cn1c(=S)[nH]c2cc(C(=O)NCCN(C)C)ccc2c1=O
→ 104	105	14	-25
#33 COc1cc2c(cc1OC)C(C(=O)Nc1ccccn1)C(c1cccnc1)N(C)C2=O (configuration not stated)
→ 101	103	3	-19
#34 O=C(CCSCc1ccccc1Cl)NC1CCCCC1
→ 102	105	-3	4
#35 CN1CCN(C(=O)c2cn(-c3ccccc3)nc2-c2cccnc2)CC1
→ 100	103	-5	.
#36 Cc1cc2ncn(CN3CCN(c4ccc(C(F)(F)F)cn4)CC3)c2cc1C
→ 107	110	44	-4
#37 COc1ccc(CCNC2CC(=O)N(CCc3ccc(OC)c(OC)c3)C2=O)cc1 (configuration not stated)
→ 99	101	-4	-15
#38 NC(=O)c1ccc(CN2CCOCC2)cc1
→ 105	107	.	7
#39 CC(=O)Nc1nnc(-c2c(-c3c(Cl)cccc3Cl)noc2C)o1
→ 96	94	-3	-2
#40 COc1ccc2c(C=Nc3ccccc3)c(O)n(C)c(=O)c2c1
→ 102	106	-13	.
#41 COc1ccc(C(=O)N/N=C2/SCC(=O)N2C)c(OC)c1
→ 102	101	20	-18
#42 CCOC(=O)c1c(CN2CCN(C)CC2)n(-c2ccccc2)c2ccc(O)cc12
→ 99	101	12	1
#43 O=S(=O)(c1ccccc1)N1CN2CCN(C2)C1
→ 107	111	.	-13
#44 CCc1cc2c(N3CCN(CC)CC3)nc(C)nc2s1
→ 101	103	2	-44
#45 C1CCC(Nc2nc(N3CCOCC3)nc(N3CCOCC3)n2)CC1
→ 103	103	-10	-7
#46 COc1ccc(Nc2cc(C)c3ccccc3n2)cc1
→ 100	108	89	-90
#47 c1cnc(SCc2csc(-c3ccc4c(c3)OCO4)n2)nc1
→ 102	102	-247	6
#48 CN(C)CCOC(=O)NC1CC(=O)N(c2ccc(F)cc2)C1 (configuration not stated)
→ 100	108	-8	1
#49 O=C(O)c1ccc2ccccc2c1Br
→ 102	104	-2	-6
#50 COc1ccc(-c2c(C#N)c(N)nc(OC)c2C#N)cc1
→ 101	103	42	-28
#51 Cc1ccc(S(=O)(=O)N2C(=O)CCC2C(=O)N(Cc2nc(-c3ccccc3)no2)C(C)C)cc1 (configuration not stated)
→ 100	102	-5	-7
#52 OC1CCCN(C2CCN(CCc3ccccc3)CC2)C1 (configuration not stated)
→ 99	107	3	6
#53 COc1ccc(-c2nn(CN3CCOCC3)c(=S)n2C2CCCCC2)cc1
→ 103	107	1	-21
#54 Cc1ccc(O)c(CCc2ccc(O)cc2)n1
→ 97	102	.	-5
#55 Cc1onc(-c2ccccc2)c1C(=O)O
→ 104	101	-4	-28
#56 O=S1(=O)C=C(N2CCOCC2)CC1
→ 102	101	-5	2
#57 CCn1ncc(C2=NOC(C(=O)N3CCN(c4ccccc4)CC3)C2)c1C (configuration not stated)
→ 104	103	0	3
#58 COc1ccc(O)c(C2SCC(=O)N2Cc2ccccc2)c1 (configuration not stated)
→ 102	101	-11	.
#59 O=C(O)CN(Cc1ccccc1)S(=O)(=O)c1ccccc1
→ 102	106	9	-6
#60 Cc1ccc(C(C)(C)C)c(OCCC#N)c1
→ 98	107	13	13

The listing continues:
Values run as follows: Polio RdRp inh	Polio RdRp inh intensity	Mtb MbtI inh	MenB inh
#61 O=C(Nc1ccc(O)cc1)C1Cc2ccccc2CN1S(=O)(=O)c1cccs1 (configuration not stated)
→ 104	103	-8	5
#62 CSCCC(=O)Nc1ccc(Oc2cccc(C)c2)cc1
→ 113	113	-11	-6
#63 O=C(O)CO/N=C/c1ccccc1
→ 98	101	-10	6
#64 O=C(C1CCC1)N1CCN(c2cc(C(F)(F)F)nc3ccccc23)CC1
→ 99	107	-8	-12
#65 CC(C(=O)NCc1ccc(F)cc1)n1sc2ccccc2c1=O (configuration not stated)
→ 99	103	-4	9
#66 CC(Nc1ncnc2ccccc12)c1ccccc1 (configuration not stated)
→ 105	113	.	-6
#67 O=C(CN1CCN(c2cccc(Cl)c2)CC1)c1ccc(Cl)cc1
→ 101	102	13	-17
#68 CCC(c1nnnn1Cc1ccccc1)N1CCN(c2cccc(C)c2C)CC1 (configuration not stated)
→ 104	101	-8	-43
#69 Cc1ccc(-n2c(SCC(=O)NC3CC3)nc3ccccc3c2=O)c(C)c1
→ 102	107	-10	.
#70 CN(C(=O)c1cccc(C#N)c1)c1nnc(C2CCOC2)s1 (configuration not stated)
→ 103	102	5	22
#71 Cc1cc(OC(=O)c2ccccc2)n[nH]1
→ 105	98	2	18
#72 CCOC(=O)C1=C(C)NC(SCC(=O)O)=NC1c1ccccc1 (configuration not stated)
→ 107	110	.	-32
#73 O=c1nccc(C(F)(F)C(F)(F)F)[nH]1
→ 96	95	11	-13
#74 Oc1ccc(Nc2nc(N3CCOCC3)c3ccccc3n2)cc1
→ 101	106	4	-10
#75 CS(=O)c1sc(C(=O)OCc2ccccc2)c2c1C(=O)CC(C)(C)C2 (configuration not stated)
→ 105	106	45	-20
#76 COc1cccc2c1Oc1nc(-c3ccccc3)nc(SCC(=O)N(C)c3ccccc3)c1C2
→ 102	95	-9	-13
#77 O=c1c(-c2cc(Br)cc3c2OCOC3)coc2ccccc12
→ 107	124	.	8
#78 O=C1Nc2ccccc2/C1=N/c1sc2c(c1C(=O)NCCc1ccccc1)CCCC2
→ 101	107	.	-14
#79 C=C(C)CN=c1scc(-c2ccco2)n1/N=C/c1cccnc1
→ 106	97	2	-114
#80 CNCc1c(C)nn(C2CCS(=O)(=O)C2)c1C (configuration not stated)
→ .	.	3	15
#81 CCCN(CCC)C(=S)NC1CC2C=CC1C2 (configuration not stated)
→ 104	99	-12	-14
#82 C/C=C/c1c(F)c(F)c(Oc2ccc(OC)cc2)c(F)c1F
→ 103	100	-9	-15
#83 Cc1nn(Cc2ccccc2Cl)c2sc(C(=O)Nc3nccs3)cc12
→ 103	113	22	-5
#84 Clc1cccc(-n2ncc3c(SCCN4CCCCC4)ncnc32)c1
→ 102	101	3	-3
#85 CC1CN(C(=O)CSc2ncnc3ccccc23)CC(C)O1 (configuration not stated)
→ 101	116	-9	-27
#86 CN(C)c1ccc(C=Nc2nonc2-c2ccccc2)cc1
→ 100	103	-10	-25
#87 C/C=C/C(=O)OCc1cc(=O)oc2cc(O)ccc12
→ 98	97	-8	-18
#88 Cc1ccc(OCCn2cc(/C=C3/C(=O)Nc4cc(Cl)ccc43)c3ccccc32)cc1C
→ 68	154	-6	-40
#89 Nc1n[nH]c(CNC(=O)c2ccccc2)n1
→ 104	99	3	5
#90 CCN(CC)c1ccc(C(=O)OCC(=O)N2CCCC2)cc1
→ 101	106	12	.
#91 COC(=O)c1ccc(NC(=O)COC(=O)c2cc3ccccc3o2)cc1
→ 106	102	.	-12
#92 O=S1(=O)C=C(Nc2ccccc2)CC1
→ 100	104	-12	-4
#93 Cn1nnc2c(N3CCCc4ccccc43)ncnc21
→ 102	107	9	-30
#94 O=C(COC(=O)c1cc[n+]([O-])cc1)Nc1ccc(Cl)c(C(F)(F)F)c1
→ 107	108	-17	.
#95 Nc1ccccc1C1C(=O)CSC1=O (configuration not stated)
→ 103	97	6	.
#96 O=C(NCCN1CCOCC1)c1ccc2c(c1)CCN2S(=O)(=O)c1ccc(Br)cc1
→ 101	103	-14	10
#97 N#Cc1c(-c2ccc(Cl)cc2)c2c([nH]c1=O)-c1ccccc1SC2
→ 72	192	-4	-2
#98 O=C(C1CCN(S(=O)(=O)c2cccc3nsnc23)CC1)N1CCN(c2ccccc2Cl)CC1
→ 100	103	-9	-13
#99 CC1CCCN(S(=O)(=O)c2cccc3c(S(=O)(=O)N4CCCC(C)C4C)cccc23)C1C (configuration not stated)
→ 92	100	.	-12
#100 COC(=O)CN1C(=O)c2ccc(C(=O)OC)cc2C1=O
→ 101	99	-8	-2
#101 FC(F)(F)C1(C(F)(F)F)N=C2C=CC=CN2C(c2ccccc2)=N1
→ 103	106	-5	-17
#102 Cn1c(=O)[nH]c2c(nc(-c3ccccc3)n2C)c1=O
→ 109	123	.	5
#103 CC(=O)Nc1cccc(-c2nn3c(C)nnc3s2)c1
→ 101	97	6	-6
#104 Cc1cccc(NCc2c(C#N)c3ccccc3n2C)c1
→ 107	109	.	-37
#105 O=C(c1cc(F)c(F)cc1Cl)N1CCN(c2ncccn2)CC1
→ 104	108	-45	.

Quoted from above: entries 100–105
Values run as follows: Polio RdRp inh	Polio RdRp inh intensity	Mtb MbtI inh	MenB inh
#100 COC(=O)CN1C(=O)c2ccc(C(=O)OC)cc2C1=O
→ 101	99	-8	-2
#101 FC(F)(F)C1(C(F)(F)F)N=C2C=CC=CN2C(c2ccccc2)=N1
→ 103	106	-5	-17
#102 Cn1c(=O)[nH]c2c(nc(-c3ccccc3)n2C)c1=O
→ 109	123	.	5
#103 CC(=O)Nc1cccc(-c2nn3c(C)nnc3s2)c1
→ 101	97	6	-6
#104 Cc1cccc(NCc2c(C#N)c3ccccc3n2C)c1
→ 107	109	.	-37
#105 O=C(c1cc(F)c(F)cc1Cl)N1CCN(c2ncccn2)CC1
→ 104	108	-45	.
